Compound activity deposited in PubChem BioAssay by ICCB-Longwood Screening Facility, Harvard Medical School.
HCMV UL50-53 inh – cytomegalovirus nuclear egress complex inhibition; 0.15% of 190,000 active; inhibition, % (no concentration beside the values); HTRF UL50-UL53 interaction, normalized percent inhibition; AID 1918969;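 active = both replicates at 50% or more, plus weaker picks with an unusually low signal ratio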;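 note: stock transfer was 100 nL into about 20 µL; 0% = negative control wells and 100% = wells with untagged competitor protein; inactives centre near -12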
Sa growth 42C – inhibitors of Staphylococcus aureus growth at 42 °C; 0.53% of 170,000 active; S. aureus RN4220 growth, OD600, 20 h; hits give low values; relative growth, % (no concentration beside the values);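 active = growth at 42 °C up to 50% and 20 or more points under that at 30 °C, or under 10% at both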;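 note: 300 nL library stock went into each well; scaled to the means of positive and negative controls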
GIV Gai3 FP – inhibitors of GIV GBA-motif binding to rat Galpha-i3; 0.42% of 210,000 active; Galpha-i3/FITC-GIV peptide fluorescence polarization, 90 min; hits give low values; scaled: aluminum fluoride 0%, vehicle 100%; percent of control (FP), % (no concentration beside the values); AID 1224905;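 active = replicate mean at 85% of control or lower, very high polarization wells dropped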;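 note: wells of about 15 µL received 100 nL stock; the first replicate is given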
Target sequence (P08753 whole entry, looked up): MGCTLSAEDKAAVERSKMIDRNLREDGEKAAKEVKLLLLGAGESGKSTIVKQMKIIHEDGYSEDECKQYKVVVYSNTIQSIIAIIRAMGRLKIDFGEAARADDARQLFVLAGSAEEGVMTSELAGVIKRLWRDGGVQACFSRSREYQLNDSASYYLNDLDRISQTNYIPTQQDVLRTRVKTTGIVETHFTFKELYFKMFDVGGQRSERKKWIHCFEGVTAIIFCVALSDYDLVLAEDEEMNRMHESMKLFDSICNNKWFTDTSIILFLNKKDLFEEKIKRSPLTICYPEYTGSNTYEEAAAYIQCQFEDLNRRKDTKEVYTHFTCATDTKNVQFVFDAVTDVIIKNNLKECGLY
Sa growth 42C second temp – further read-out of Sa growth 42C, marked with its call; relative growth, %; measured here: growth at 30 °C;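 optical density after 20 h as mean of two plates; 100% = untreated growth and lower means inhibition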
The depositor's hits bear a star; · = not tested or not shown; & = joins results of further samples.

SMILES	HCMV UL50-53 inh	Sa growth 42C	Sa growth 42C second temp	GIV Gai3 FP
COc1ccc(C(CC(=O)NC2CCCC2)NS(=O)(=O)c2ccc(C)cc2)cc1 (stereo unspecified)	·	84	85	105
COc1cc(C(=O)NCCCc2nc3ccccc3[nH]2)cc(OC)c1OC	1	86	90	101
Cc1ccc(SCc2cc(=O)[nH]c(N3CCCCC3)n2)cc1	-11	114	86	104
CN1CCN(C(=O)CCc2nc(-c3ccccn3)no2)CC1	-18	95	92	104
Cc1nn(C)c(C)c1CCN(C)C(=O)Nc1ccc(F)cc1	25	·	·	107
COC(=O)C(CCSC)NC(=O)c1cc2c(n(-c3ccc(OC)cc3)c1=O)CC(C)(C)CC2=O (stereo unspecified)	-6	102	93	102
Cc1cc(C(=O)COC(=O)/C=C/c2ccco2)c(C)n1-c1ccc(F)cc1	-11	105	95	·
OC(CNCc1ccccc1)Cn1c2ccc(Cl)cc2c2cc(Cl)ccc21 (stereo unspecified)	·	-0.9*	-0.1*	101
O=C(Nc1ccc(F)cc1)Nc1ccc(-c2nnc(-c3ccccc3)o2)cc1	0	·	·	105
COc1ccc(OC)c(C2=NOC(C(=O)N(C)C3CCCCC3)C2)c1 (stereo unspecified)	·	108	96	110
CC(=O)Nc1cccc(NC(=O)Cn2cnc3c2c(=O)n(C)c(=O)n3C)c1	-40	101	92	106
CCCCNC(=O)C1CCCN(c2nnc(C)c3c(C)n(-c4ccc(Cl)cc4)nc23)C1 (stereo unspecified)	·	93	89	105
O=C(Nc1ccc(F)cc1Cl)C1CCN(c2ncnc3c2nc2n3CCCCC2)CC1	·	123	103	104
CCCN(CCC)CC(O)CN1C(=O)N(CN2C(=O)N(CC(O)CN(CCC)CCC)C(=O)C2(C)C)C(C)(C)C1=O (stereo unspecified)	-32	89	82	101
CCC(=O)N1CCCc2cc(S(=O)(=O)CCC(=O)Nc3ccc(CC)cc3)ccc21	·	88	82	99
COc1ccc(C(=O)Nc2cc3c(cc2OC)n(C)c(=O)n3C)cc1	-38	·	·	103
CC(C)C(=O)Nc1cccc(-c2nc(-c3ccccc3)no2)c1	-35	·	·	108
CCCn1c(N)c(C(=O)CN2c3ccccc3CC2C)c(=O)n(C)c1=O (stereo unspecified)	-22	109	89	·
O=C(O)Cc1sc(Nc2ccc(C(=O)O)cc2)nc1-c1ccccc1	-41	105	94	108
CN1C(=O)CN(C2CCCCC2)C1=O	·	96	82	97
Cc1ccc(-n2c(SCc3cccc(F)c3)nc3[nH]ncc3c2=O)cc1C	·	43	34	99
COC(=O)c1cnc(NCCCN2CCOCC2)c2ccccc12	-10	101	93	104
CC1CCN(C=C(S(=O)(=O)c2ccccc2)S(=O)(=O)c2ccccc2)CC1	-20	104	108	106
COCCNC(=O)C12CC3CC(C1)CC(C(=O)NCCOC)(C3)C2	-16	102	92	·
Cc1cn2c(=O)cc(COc3ccc(NC(=O)CC(C)C)cc3)nc2s1	-23	·	·	101

(next part)
SMILES	HCMV UL50-53 inh	Sa growth 42C	Sa growth 42C second temp	GIV Gai3 FP
CC(=O)Nc1ccc(-c2cc(C(=O)O)nc3n[nH]c(-c4ccccc4)c23)cc1	·	103	85	102
CC(C)Oc1ccc(C(=O)NCCc2csc(-c3ccccc3)n2)cc1	-15	·	·	101
CC(=O)Nc1ccc(Br)cc1Cl	-1	107	77	98
COc1cc(/C=C2\N=C(C)OC2=O)cc(OC)c1	-5	102	102	97
O=C(C1CCC(CNS(=O)(=O)c2ccccc2)CC1)N1CCCC1 (stereo unspecified)	9	93	93	105
COc1cc(C(=O)N(Cc2ccc(C(C)C)cc2)C2CCS(=O)(=O)C2)cc(OC)c1OC (stereo unspecified)	-18	103	89	101
Nc1nc(S(=O)(=O)Cc2ccc(F)cc2)ns1	-2	·	·	106
CCOC(=O)C1=C(C)NC(C)=C(C(=O)OCC)C1c1c(F)c(F)c(F)c(F)c1F	-9	·	·	95
O=C(/C=C\c1ccccc1)Nc1ccc(-c2cn3cccnc3n2)cc1	·	87	86	111
C=CCC(NCc1ccccc1)c1ccc(C)o1 (stereo unspecified)	3	92	92	103
O=S(=O)(NCC(c1ccccc1)N1CCc2ccccc21)c1ccc(Cl)cc1 (stereo unspecified)	-8	86	75	104
O=C1CCC(=O)N1c1ccc(CSc2nnnn2C2CCCCC2)cc1	-5	111	86	108
O=C1c2ccccc2C(=O)N1/N=C/c1ccc2c(c1)OCCO2	-50	85	87	·
Cc1ccc2c(c1)-c1ncc(C(=O)c3cc(Br)ccc3O)cc1CO2	4	66	72	105
COc1cc2c(cc1OC)C(CC(=O)O)c1cc(OC)c(OC)cc1C(=O)C2 (stereo unspecified)	-57	86	94	·
Cc1ccc(S(=O)(=O)n2nc(-c3ccccc3)nc2NCc2ccc(Cl)cc2)cc1	-2	97	89	105
CCOc1ccc(CCNC(=O)c2cc3oc4ccccc4c3n2CC)cc1OCC	-8	100	89	105
CCOC(=O)c1ccc(Nc2c(-c3ccc(O)cc3)nc3nc[nH]n23)cc1	·	110	91	98
CCN(C(=O)COc1ccccc1C#N)C12CC3CC(CC(C3)C1)C2	-14	66	83	·
O=C1C2C3C=CC(CC3)C2C(=O)N1c1ccc(Br)cc1[N+](=O)[O-] (stereo unspecified)	-16	·	·	101
N#CCSc1nc2ccccc2c(=O)n1C1CCCCC1	3	84	68	97
CC(C)(C)OC(=O)N1CCc2c(sc(N)c2C#N)C1	0	81	96	·
CCN(CC)C(=O)Nc1cccc(Cl)c1	1	112	98	105
CCc1cc(CC)c(CO)c(CC)c1CO	-6	102	84	100
FC(F)(F)c1ccccc1/C=N\N1CCN(c2ccccc2)CC1	-17	83	81	102

Random excerpt: five compounds from above, in no set order.
SMILES	HCMV UL50-53 inh	Sa growth 42C	Sa growth 42C second temp	GIV Gai3 FP
Cc1ccc(S(=O)(=O)n2nc(-c3ccccc3)nc2NCc2ccc(Cl)cc2)cc1	-2	97	89	105
CCN(CC)C(=O)Nc1cccc(Cl)c1	1	112	98	105
COc1cc(/C=C2\N=C(C)OC2=O)cc(OC)c1	-5	102	102	97
Nc1nc(S(=O)(=O)Cc2ccc(F)cc2)ns1	-2	·	·	106
C=CCC(NCc1ccccc1)c1ccc(C)o1 (stereo unspecified)	3	92	92	103

Rewritten as labelled records: entries from further up.
CCN(C(=O)COc1ccccc1C#N)C12CC3CC(CC(C3)C1)C2
  HCMV UL50-53 inh: -14	Sa growth 42C: 66	Sa growth 42C second temp: 83	GIV Gai3 FP: ·
O=C1C2C3C=CC(CC3)C2C(=O)N1c1ccc(Br)cc1[N+](=O)[O-] (stereo unspecified)
  HCMV UL50-53 inh: -16	Sa growth 42C: ·	Sa growth 42C second temp: ·	GIV Gai3 FP: 101
N#CCSc1nc2ccccc2c(=O)n1C1CCCCC1
  HCMV UL50-53 inh: 3	Sa growth 42C: 84	Sa growth 42C second temp: 68	GIV Gai3 FP: 97
CC(C)(C)OC(=O)N1CCc2c(sc(N)c2C#N)C1
  HCMV UL50-53 inh: 0	Sa growth 42C: 81	Sa growth 42C second temp: 96	GIV Gai3 FP: ·

More structures.
SMILES	HCMV UL50-53 inh	Sa growth 42C	Sa growth 42C second temp	GIV Gai3 FP
COc1ccc(-c2nc(CS(=O)(=O)c3ccc(F)cc3)no2)cc1OC	-30	109	88	104
COc1ccccc1NC(=O)Cc1noc(COC(=O)c2ccc(SC)cc2OC)n1	0	103	79	·
CCOC(=O)N1CCC(NC(=O)c2cc3c(=O)oc4ccccc4c3s2)CC1	2	110	90	102
CC(C)n1cnc2nc(CSc3ccccc3NC(=O)c3cccc(Br)c3)cc(=O)n21	12	·	·	105
CCOC(=O)C1CCCN(c2c(C(=O)c3ccc(OCC)cc3)cnc3ccccc23)C1 (stereo unspecified)	18	90	70	106
CN(Cc1ccccc1)S(=O)(=O)c1ccc(C(=O)Nc2ccc(-c3nc4ccccc4[nH]3)cc2)cc1	·	112	93	100
CSc1c(C#N)c(-c2ccccc2)nn1C	5	122	89	110
COc1cc(OC)c(OC)cc1CNCc1cccnc1	-10	99	91	98
O=C(COCC(=O)c1ccccc1)Sc1nc2ccccc2o1	-5	91	106	·
CCOC(=O)c1c(N)nc(SC)n1Cc1ccco1	2	96	97	103
COCCCNc1oc(/C=C/c2cc(OC)c(OC)c(OC)c2)nc1C#N	-84	105	78	96
O=C(O)Cc1cc(=O)n(C2CCS(=O)(=O)C2)[nH]1 (stereo unspecified)	21	105	104	·
Cc1cc(O)c(C(=O)/C=C/N(C)C)c(=O)o1	-50	95	88	108
O=C1c2ccccc2C2(O)NC(=S)NC12O (stereo unspecified)	-35	107	87	103
COCCn1c(C)cc(O)c(C(c2ccccc2Cl)N2CCCCC2)c1=O (stereo unspecified)	·	84	92	101
O=C(Nc1ccc(Br)cc1F)C1CSC(c2ccncc2)=N1 (stereo unspecified)	-10	91	53	101
O=C(NC12CCC(O)C(SC1)/C2=N/O)c1ccccc1 (stereo unspecified)	-3	116	88	105
Cc1ccc(C)c(NC(=O)n2ncc3cc(Cl)ccc32)c1	-21&0	123	92	101&101
O=C(NC1CC(=O)N(c2ccccc2)C1)c1cc2ccccc2o1 (stereo unspecified)	·	110	87	102&104
CCc1ccc(NC(=O)c2noc3ncnc(N4CCCC4)c23)cc1	-26	96	87	105
COc1ccc(Cn2c(SCc3ccccc3C)nc3ccncc32)cc1	-14	·	·	102
Clc1snnc1CN1CCOCC1	-37	117	85	99
COc1ccc(S(=O)(=O)n2nc(-n3c(C)ccc3C)c3c(F)cccc32)cc1OC	-4	109	87	105
O=C(NCCc1ccccc1)N1CCN(Cc2nc3cc(Cl)ccc3o2)CC1	-16	·	·	108
NC(=O)COc1ccc2oc(-c3ccccc3)cc(=O)c2c1	0	143	108	104

Other compounds:
SMILES	HCMV UL50-53 inh	Sa growth 42C	Sa growth 42C second temp	GIV Gai3 FP
O=C(Oc1ccccc1F)c1nc(SCc2ccccc2F)ncc1Cl	8	105	91	96
CN(CC(=O)O)c1ncc(-c2nnnn2-c2ccccc2)c(-c2ccccc2Cl)n1	-12	100	85	97
COc1ccc(S(=O)(=O)N2CCN(c3ccccc3OC)CC2)cc1	·	99	98	98
O=C(c1ccc2c(c1)C(=O)N(CC1CCCO1)C2=O)c1ccc2c(c1)C(=O)N(CC1CCCO1)C2=O (stereo unspecified)	-72	111	86	·
CCOC(=O)Oc1ccc2oc(=O)cc(C)c2c1	10	102	100	103
O=C(c1ccc(F)cc1)n1nc(-c2cccnc2)nc1NCc1ccc(F)cc1	-40&18	113	86	98&101
OC1CCCN(Cn2nc(-c3ccccc3)n(-c3ccc(F)cc3F)c2=S)C1 (stereo unspecified)	-29	85	84	·
COc1ccc2c(c1)c(NC(C)=O)c1n2CC(C)(C(=O)NC2CCCC2)N(Cc2ccccc2)C1=O (stereo unspecified)	6	·	·	92
COc1ccc(NC(=O)CC2NCCNC2=O)c(OC)c1 (stereo unspecified)	-5	95	89	104
CN1CCN(Cn2c(=S)oc3ccccc32)CC1	-34	103	95	·
Cc1sc(NC(=O)C2c3ccccc3Oc3ccccc32)c(C(=O)OC(C)C)c1C	-30	98	91	110
COc1ccc(-n2ncc3c(N4CCN(c5cccc(C)c5)C(C)C4)ncnc32)cc1 (stereo unspecified)	·	124	102	102
COc1ccc(-c2cc(C(=O)Oc3ccc(C)c(C)c3)c3ccccc3n2)cc1	-26	97	94	101
CCc1ccccc1Nc1nc2ccccc2[nH]1	8	113	101	107
CC(C)S(=O)(=O)c1csc(C(=O)O)c1	-19	91	84	107
Clc1cccc(-n2ncc3c(N4CCC(Cc5ccccc5)CC4)ncnc32)c1	·	142	87	107
Cc1ccc(CN2CCSc3ccc(C(=O)NCc4ccc(OC(C)C)cc4)cc32)cc1	-23	104	87	108
O=C(O)c1c2c(nc3ccc(S(=O)(=O)N4CCC(C(=O)NC5CCCC5)CC4)cc13)CCCCC2	·	107	85	105
COC(=O)C(F)(Sc1c[nH]c2ccccc12)C(F)(F)F (stereo unspecified)	2	100	88	103
O=c1ccnc(SCc2cn3ccccc3n2)[nH]1	-20	87	90	·
Cc1ccc(S(=O)(=O)NCCSc2ncccn2)cc1	-14&-6	85	85	108
C#CCn1nnc(-c2cc(C(F)(F)F)cc(C(F)(F)F)c2)n1	-3	102	87	107
Cc1nc(C(N)=O)c(N)n1CCO	5	84	91	·
Cc1nnc(-c2cc3ccccc3n2CC(=O)N2CCC(C)CC2)o1	-6	·	·	99
COc1ccccc1N1CCN(C(=O)c2nc(-c3ccc(C)cc3)n3c2CCCCC3)CC1	·	114	94	104

(more compounds)
SMILES	HCMV UL50-53 inh	Sa growth 42C	Sa growth 42C second temp	GIV Gai3 FP
CCCCCC1CC(CC(=O)Nc2nncs2)C(=O)O1 (stereo unspecified)	-8	97	94	109
CCc1ccc(NC(=O)CN(c2ccc(C)cc2)S(=O)(=O)c2cccc3nonc23)cc1	-31	94	85	102
CCCCC(CC)CSc1nc2ncccc2[nH]1 (stereo unspecified)	-19	83	69	·
C/C(N)=C(/C#N)C(=O)CSc1nc(C)cs1	-21	98	90	·
CCOC(=O)Cc1csc2nc3sc4c(c3c(=O)n12)CCCC4	-2	99	98	·
NNC(=O)c1ccc2c(=O)[nH][nH]c(=O)c2c1	-1	114	81	·
CSc1nc(NCCOC(C)=O)c(C#N)c(-c2ccc(C(C)(C)C)cc2)n1	16	106	95	102
Cc1noc(C)c1CSc1ncccc1C(=O)Nc1ccc2c(c1)OCCO2	4	113	95	·
